Screens deposited in PubChem BioAssay by ICCB-Longwood Screening Facility, Harvard Medical School.
Sa growth inh = S. aureus growth inhibition at 42 and 30 °C, primary screen, LtaS inhibitor project, RN4220, two temperatures; hit rate 0.53% among 170,000; OD600, 20 h, 42 °C; active compounds read low; relative growth, % (test concentration not listed); AID 720641, 2013;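 active means growth at 42 °C up to 50% and 20 or more points under that at 30 °C, or under 10% at both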;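 further: 300 nL library stock went into each well; scaled to the means of positive and negative controls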
HCMV UL50-53 inh = inhibitors of HCMV UL50-UL53 interaction, biochemical, HTRF. hit rate 0.15% among 190,000. HCMV UL50-UL53 nuclear egress complex (human cytomegalovirus). inhibition, % (no concentration beside the values). normalized percent inhibition. AID 1918969, 2023;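 active means both replicates at 50% or more, plus weaker picks with an unusually low signal ratio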;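 further: stock transfer was 100 nL into about 20 µL; 0% = negative control wells and 100% = wells with untagged competitor protein; inactives centre near -12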
GIV Gai3 FP = inhibitors of GIV peptide binding to Galpha-i3, primary screen, biochemical, fluorescence polarization, FITC-GIV GBA peptide, rat Galphai3; 90 min; active compounds read low; scaled: aluminum fluoride 0%, vehicle 100%; percent of control (FP), % (test concentration not listed); hit rate 0.42% among 210,000; Guanine nucleotide-binding protein G(i) subunit alpha-3 (Rattus norvegicus), P08753;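 active means replicate mean at 85% of control or lower, very high polarization wells dropped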;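 further: lower values mean more displacement of the GIV peptide from Galpha-i3; wells of about 15 µL received 100 nL stock; the first replicate is given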
Target sequence (P08753 whole entry, looked up): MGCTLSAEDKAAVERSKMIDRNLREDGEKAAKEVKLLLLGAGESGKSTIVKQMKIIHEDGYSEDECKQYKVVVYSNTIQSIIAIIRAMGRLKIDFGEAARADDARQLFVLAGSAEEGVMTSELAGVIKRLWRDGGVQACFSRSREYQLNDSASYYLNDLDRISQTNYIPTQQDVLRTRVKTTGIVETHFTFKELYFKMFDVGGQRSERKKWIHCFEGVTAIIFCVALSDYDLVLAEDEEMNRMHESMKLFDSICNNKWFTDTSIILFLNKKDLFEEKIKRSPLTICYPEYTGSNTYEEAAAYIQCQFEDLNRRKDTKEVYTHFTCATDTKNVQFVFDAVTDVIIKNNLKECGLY
Sa growth inh second temp = second read-out of Sa growth inh, no call of its own (marks repeat the call); relative growth, %; measured here: growth at 30 °C;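 optical density after 20 h as mean of two plates; 100% = untreated growth and lower means inhibition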
* hit, by the source's call; nt = no result given; & = joins results of further samples.

SMILES	Sa growth inh	Sa growth inh second temp	HCMV UL50-53 inh	GIV Gai3 FP
CCOCCOC(=O)C1=C(C)NC2=C(C(=O)CC(C)(C)C2)C1c1cc(Br)c(O)c(OC)c1 (stereo not drawn)	nt	nt	-7	102
Cc1ccc(S(=O)(=O)/C=C/C#N)cc1	nt	nt	-13&-5&-5&-8&-11	107
CCOC(=O)C(Cc1ccccc1)C(=O)N1CCN(C)CC1 (stereo not drawn)	87	80	-10	97
CC(C)(C)OC(=O)N1CCC(c2c(C(=O)N3CCC(c4ccccc4)C3)cnn2-c2cccc(Cl)c2)CC1 (stereo not drawn)	116	79	nt	108
O=S(=O)(c1ccc(CN2CCOCC2)cc1)N1CCOCC1	120	97	42	103
O=C(O)c1cc(-c2cccnc2)nn1-c1cccc(C(F)(F)F)c1	98	86	-17	nt
NC1c2c(ccc3ccccc23)OCC1CO (stereo not drawn)	nt	nt	-16	100
Cc1ccc(C2N=C(Nc3cccc(C)c3C)Nc3nc(C)cc(=O)n32)cc1 (stereo not drawn)	nt	nt	-29	102
CC(SCc1ccco1)C(=O)O (stereo not drawn)	95	84	8	97
CCOC(=O)c1oc2ccc(S(=O)(=O)n3nc(-c4ccc(C)cc4)cc3N)cc2c1C	90	85	-26	101
CC(C)CCN1C(=O)C(O)(CC(=O)c2cccc(C(F)(F)F)c2)c2ccccc21 (stereo not drawn)	146	89	-25	nt
CCSc1nc2c(c(=O)n1-c1ccccc1)SCC2	100	81	nt	102
N#Cc1c(-c2ccccc2)c(-c2ccccc2)n[nH]c1=O	101	91	-131	102
O=C(O)CCC1CCCCCCCCCCC1	74	92	-29	93
COc1cccc2cc(C(C)N(CCCN3CCOCC3)C(=S)Nc3cccc(Cl)c3C)oc12 (stereo not drawn)	107	95	-3	106
Cc1cccc(C(=O)OC(C)C(=O)N2CCc3ccccc3C2)c1C (stereo not drawn)	94	95	-25	nt
CC1CCCCC1NC(=O)CSc1nccc(=O)[nH]1 (stereo not drawn)	110	86	-10	102
CN(C)c1ccc(C(CNC(=O)c2ccc(F)cc2)N2CCOCC2)cc1 (stereo not drawn)	nt	nt	-32	101
CSc1nccc(-c2ccc(S(=O)(=O)N3CCCCC3)s2)n1	88	94	3	104
Cn1c(=O)n(C)c2cc(CNCC(O)c3ccccc3)ccc21 (stereo not drawn)	nt	nt	4	103
CC(C)(C)C(=O)Cn1c(=O)n(CCCC(=O)NCc2ccco2)c(=O)c2sccc21	104	93	nt	98
CC1CCN(S(=O)(=O)c2cc(C(=O)NC3CCCC3)n(C)c2)CC1	nt	nt	-18	105
CCOc1cc(C(OC(C)=O)OC(C)=O)cc(Cl)c1OC(C)=O	117	94	-16	111
Cc1ccc2oc(=O)c3cc(C(=O)NCCCN4CCCCCC4)sc3c2c1	86	68	nt	111
N#CC1(NC(=O)CSc2nc(N)cc(N)n2)CCCC1	103	101	23	nt
CCOC(=O)/C(C#N)=C(\O)c1ccccc1	115	106	-4	89
CC1=C(c2ccccc2)S(=O)(=O)N=C1N1CCCC1	102	98	1	102
CC(C)CNc1nc(Oc2ccc(OCC(N)=O)nn2)nc(N2CCOCC2)n1	92	92	-13	104
CC1CC1C(=O)OCC(=O)Nc1ccc2[nH]c(=O)[nH]c2c1 (stereo not drawn)	103	84	2	nt
O=C(O)CSCC(=O)Nc1cccc(C(F)(F)F)c1	96	92	-40	102
O=C1Cc2cc(S(=O)(=O)NNc3ccc(C(F)(F)F)cn3)ccc2N1	84	86	-24	nt
Cc1ccc(-n2c3nc(=O)n(C)c(=O)c-3cc3ccccc32)c(C)c1	78	95	-79	107
CN(C(=O)CSc1nnc(-c2cccnc2)o1)c1ccc(F)cc1	nt	nt	-12	95
CCOC(=O)CN1Cc2cccc(C(=O)O)c2C1=O	108	89	-5	106
Cc1ccccc1S(=O)(=O)Cc1ccc(C(=O)NC2CCCC2)o1	81	82	nt	97
O=C(c1ccc(Br)cc1)c1cc2c(cc1Br)OCCCO2	99	91	-10	98
Cc1nn(-c2ccccc2)c2sc(C(=O)OCC(=O)c3ccccc3)cc12	72	94	-20	nt
CCOc1ccc2nc(NC(=O)c3nc(SCc4ccc(C)cc4)ncc3Cl)sc2c1	97	89	-16	98
CCS(=O)(=O)N1CCc2cc(C(=O)Nc3cccc(C)c3C)ccc21	99	93	-13	105
O=C1N/C(=N/N=C/c2ccco2)SC1c1ccccc1 (stereo not drawn)	98	89	-23	99
CCOC(=O)c1noc2nc(C)n(C(C)C(=O)N3CCCc4ccccc43)c(=O)c12 (stereo not drawn)	nt	nt	3	105
COc1ncnc2scc(C)c12	103	83	0	104
O=c1c2c(nc3cc(-c4ccccc4)[nH]n13)CCC2	100&93	74&82	-1&-12	98
COc1ccc2c(Cl)c(C(=O)N(C)C3CCN(C)CC3)sc2c1	64	78	-38	nt
Cc1oc(-c2ccc(Cl)cc2)cc1C(=O)N1CCc2[nH]c3ccc(F)cc3c2C1	93	57	-25	106
Cc1ccc(OCCCC(=O)Nc2nccs2)cc1	111	96	-2	nt
Fc1ccc(N2CCN(c3ncnc4c3nc3n4CCCC3)CC2)cc1	102	100	2&-33	106&97
O=C(CSc1ccc2nnc(-c3ccncc3)n2n1)Nc1ccccc1	101	86	-18	98
CCOC(=O)N1CCC(=NNc2nc(C)cc(=O)[nH]2)CC1	82	88	-9	nt
COc1c(C)c2c(c(O)c1C/C=C(\C)CCC(=O)O)C(=O)OC2	94&92	43&58	-20&-29&-10&6&-1	104
CCOc1ccc(N(Cc2cc3cc(OC)ccc3[nH]c2=O)S(C)(=O)=O)cc1	89	92	-21	104
O=C(N=c1c2c3c(sc2nc2n1CCCCC2)CCCC3)c1ccc(S(=O)(=O)N2CCOCC2)cc1	53	57	-15	nt
CCNc1nc(NCC)n2c(SCC(=O)N3CC(C)OC(C)C3)nnc2n1 (stereo not drawn)	79	89	-21	nt
CCOc1cc(/C=C2/C(=O)N(c3ccccc3)C(=S)N(c3ccc(C)c(C)c3)C2=O)ccc1O	45	39	nt	113
COc1ccccc1CNC(=O)c1sc(=S)n(-c2ccc(Cl)cc2)c1N	nt	nt	-31	105
CCN1C(=S)SC(=O)C1=C1C=C(C)N(CCOC)C(C)=C1	97	98	-26	nt
c1ccc(-c2ccc(CNCc3ccco3)o2)cc1	113	85	-4	105
CCOc1ccc(CNC(=O)CCn2nc(C)c3c(C)n(-c4ccccc4)nc3c2=O)cc1	103	100	nt	107
CCN(CC)c1cc2c(cc1NC(=O)c1c(-c3ccccc3Cl)noc1C)n(C)c(=O)c(=O)n2C	nt	nt	-27	99
O=C(Cc1ccc(F)cc1)NCCc1csc(-c2cccc(F)c2)n1	81	85	nt	102
Additional entries follow:
SMILES	Sa growth inh	Sa growth inh second temp	HCMV UL50-53 inh	GIV Gai3 FP
O=C(NCCCc1ccccc1)c1ccc(Br)o1	83	91	-7	102
O=S1(=O)N=C2CCCCCN2C(c2ccc(Br)cc2)N1 (stereo not drawn)	67	92	-14	nt
Cc1cccc(NC(=O)CCS(=O)(=O)c2cc(Br)cc3c2N(C(=O)C2CC2)CC3)c1	86	102	1	100
COc1ccc(OCC(=O)NCC(c2ccc(Br)cc2)c2c[nH]c3ccccc23)cc1 (stereo not drawn)	nt	nt	-23	109
CC(C)c1ccc(C(=O)COC(=O)C(O)c2ccccc2)cc1 (stereo not drawn)	103	93	-5	nt
Cc1cc(Cl)ccc1OCc1nnc(SCC(=O)O)n1C1CCCCC1	96	94	-21	nt
Cc1cccnc1NC(=O)NC(C)(C(F)(F)F)C(F)(F)F	100	87	nt	97
Cn1c2ccccc2n2cc(-c3ccc4c(c3)OCO4)nc12	nt	nt	-6	94
O=C(N1CCOCC1)N1CCC(NC(=O)C23CC4CC(CC(C4)C2)C3)CC1	110	90	-24	98
Cc1nn(-c2ccccc2)c2c1-c1sc(C(=O)NCc3cccs3)cc1CC2	117	91	-6	113
Cc1cc(F)ccc1S(=O)(=O)Nc1ccc2c(c1)N(C(=O)C1CC1)CCC2	107	79	-24	101
Cc1coc2cc3oc(=O)c(CC(=O)NCc4cccc(Cl)c4)c(C)c3cc12	90	90	-3	110
COc1cc(CN(C(=O)c2ccc(OC(C)C)cc2)C2CCS(=O)(=O)C2)cc(OC)c1OC (stereo not drawn)	84	90	12	107
CCOC(=O)CSc1nc2c(c(=O)n1-c1ccccc1OC)C1(CCCCC1)Cc1ccccc1-2	nt	nt	-18	102
COc1ccc2ccccc2c1C1C(C(C)=O)=C(C)N=c2s/c(=C\c3ccc(N(C)C)cc3)c(=O)n21 (stereo not drawn)	nt	nt	-22	177

Random excerpt: 6 compounds from above
SMILES	Sa growth inh	Sa growth inh second temp	HCMV UL50-53 inh	GIV Gai3 FP
Cc1nn(-c2ccccc2)c2c1-c1sc(C(=O)NCc3cccs3)cc1CC2	117	91	-6	113
Cc1cccc(NC(=O)CCS(=O)(=O)c2cc(Br)cc3c2N(C(=O)C2CC2)CC3)c1	86	102	1	100
O=C(NCCCc1ccccc1)c1ccc(Br)o1	83	91	-7	102
COc1cc(CN(C(=O)c2ccc(OC(C)C)cc2)C2CCS(=O)(=O)C2)cc(OC)c1OC (stereo not drawn)	84	90	12	107
Cc1cc(Cl)ccc1OCc1nnc(SCC(=O)O)n1C1CCCCC1	96	94	-21	nt
O=S1(=O)N=C2CCCCCN2C(c2ccc(Br)cc2)N1 (stereo not drawn)	67	92	-14	nt

The results go on.
SMILES	Sa growth inh	Sa growth inh second temp	HCMV UL50-53 inh	GIV Gai3 FP
O=c1c2c(-c3ccccc3)csc2nc2c3ccccc3c(NCC3CCCO3)nn12 (stereo not drawn)	nt	nt	-13	95
O=C1CCCC2=C1C(c1cccc(Br)c1)Nc1ccc(C(=O)c3ccccc3)cc1N2 (stereo not drawn)	nt	nt	-16	101
CCCCCCC1COC(c2ccc(O)cc2)OC1 (stereo not drawn)	81	62	-14	102
COc1ccc(CNC(=O)CCc2nc3cccnc3n2Cc2ccccc2)cc1	100	96	12	109
Cc1ccc(Cl)cc1NC(=O)c1cc(S(=O)(=O)N2CCCCCC2)cn1C	96	89	nt	97
CCCC1N=C2c3ccccc3N=C(SC(CC)C(=O)N3CCc4ccccc43)N2C1=O (stereo not drawn)	nt	nt	-16	104
CSC(=S)Nc1ccc(Cl)cc1	89	71	nt	101
Cc1cc(C)cc(NC(=O)C(C)Oc2cc(C(F)(F)F)c3c(C)nn(C)c3n2)c1 (stereo not drawn)	nt	nt	-28	106
Cc1cc(NC(C)c2ccccc2)n2c(nc3ccccc32)c1C#N (stereo not drawn)	92	73	nt	109
CCc1ccc(C2=NC(C)(CC)NC(c3cc(Cl)ccc3O)C2)cc1 (stereo not drawn)	18	22	nt	102
CC1S/C(=N/N=C/c2ccccc2)NC1=O (stereo not drawn)	104	102	10	100
Cc1noc(C)c1S(=O)(=O)N1CCC(C(=O)NCCCN2CC(C)CC(C)C2)CC1 (stereo not drawn)	90	88	-18	98
CC1Cc2ccccc2N1C(=O)COC(=O)c1ccccc1N=NN(C)C (stereo not drawn)	101	98	-7	nt
CCCc1cc(=O)[nH]c2nnc(SCCC(C)C)n12	112	95	nt	102&113
CCCN(CCC)C(=O)C1CCN(c2ncnc3c2nc2n3CCCCC2)CC1	113	93	nt	106

Of the compounds above, five contain a cyano group.
SMILES	Sa growth inh	Sa growth inh second temp	HCMV UL50-53 inh	GIV Gai3 FP
Cc1ccc(S(=O)(=O)/C=C/C#N)cc1	nt	nt	-13&-5&-5&-8&-11	107
N#Cc1c(-c2ccccc2)c(-c2ccccc2)n[nH]c1=O	101	91	-131	102
N#CC1(NC(=O)CSc2nc(N)cc(N)n2)CCCC1	103	101	23	nt
CCOC(=O)/C(C#N)=C(\O)c1ccccc1	115	106	-4	89
Cc1cc(NC(C)c2ccccc2)n2c(nc3ccccc32)c1C#N (stereo not drawn)	92	73	nt	109

Next compounds.
SMILES	Sa growth inh	Sa growth inh second temp	HCMV UL50-53 inh	GIV Gai3 FP
O=C(NC1CCN(C(=O)Cc2ccccc2)CC1)C1CCCCC1	119	85	-3	108
COc1ccc(-n2c(=O)[nH]c3cc(C(=O)NCCc4ccccc4)ccc3c2=O)cc1OC	108	72	2	106
CC(C)CNC(=O)c1cccc(C(=O)NCC(C)C)c1	74	83	-8	108
CCc1ccc(NC(=O)Cn2c(=O)n(-c3ccc(OC)cc3)c(=O)c3ccc(C(=O)NCc4ccc(C)cc4)cc32)cc1	99	103	15	105
CCOC(=O)C(Cc1c[nH]c2ccccc12)NC(=O)COc1cc(C)c(Cl)c(C)c1 (stereo not drawn)	nt	nt	-10	101
Cc1nc(-c2cccc(N3CC(C(=O)NCc4ccc5c(c4)OCO5)CC3=O)c2)no1 (stereo not drawn)	nt	nt	-32	102
O=C(O)CCCC(=O)N1N=C(c2ccccc2)CC1c1ccccc1 (stereo not drawn)	108	89	-23	nt
NS(=O)(=O)c1ccc(S(=O)(=O)NCCc2c[nH]c3ccccc23)cc1	88	85	nt	100
COc1ccc(C2SCC(=O)N2c2c(C)n(C)n(-c3ccccc3)c2=O)c(OC)c1 (stereo not drawn)	nt	nt	-10	102
NS(=O)(=O)c1csc(C(=O)Nc2ccccc2)c1	95	82	-15	nt
Cc1ccccc1Nc1nc2ccccc2[nH]c1=O	nt	nt	-15	106
CN(Cc1ccccc1)C(=O)C1=CC(c2cccs2)=NS(=O)(=O)N1C	88	76	-100	98
CC(C)(C)S(=O)(=O)Cc1nc(-c2ccc(F)c(F)c2)cs1	115	70	-6	102
